Bioassay records (PubChem)
TRPV1 PAM: HTS Assay for Compounds that Act as Potentiators of the Vanilloid Receptor 1 | Transient receptor potential cation channel subfamily V member 1 (Homo sapiens), Q8NER1 | TRPV1-expressing cells, Fluo-8 calcium influx, capsaicin EC20 potentiation; host cell line not named in the record; control for the full effect not named in the record | potentiation, % at 8.33 µM | actives 0.02% (n = 320,000) | AID 540277, 2011; active means potentiation above 80%; inconclusive means 30% to 80%; inactive means below 30%; also: 0% is about no effect
Target sequence (Q8NER1 whole entry, looked up): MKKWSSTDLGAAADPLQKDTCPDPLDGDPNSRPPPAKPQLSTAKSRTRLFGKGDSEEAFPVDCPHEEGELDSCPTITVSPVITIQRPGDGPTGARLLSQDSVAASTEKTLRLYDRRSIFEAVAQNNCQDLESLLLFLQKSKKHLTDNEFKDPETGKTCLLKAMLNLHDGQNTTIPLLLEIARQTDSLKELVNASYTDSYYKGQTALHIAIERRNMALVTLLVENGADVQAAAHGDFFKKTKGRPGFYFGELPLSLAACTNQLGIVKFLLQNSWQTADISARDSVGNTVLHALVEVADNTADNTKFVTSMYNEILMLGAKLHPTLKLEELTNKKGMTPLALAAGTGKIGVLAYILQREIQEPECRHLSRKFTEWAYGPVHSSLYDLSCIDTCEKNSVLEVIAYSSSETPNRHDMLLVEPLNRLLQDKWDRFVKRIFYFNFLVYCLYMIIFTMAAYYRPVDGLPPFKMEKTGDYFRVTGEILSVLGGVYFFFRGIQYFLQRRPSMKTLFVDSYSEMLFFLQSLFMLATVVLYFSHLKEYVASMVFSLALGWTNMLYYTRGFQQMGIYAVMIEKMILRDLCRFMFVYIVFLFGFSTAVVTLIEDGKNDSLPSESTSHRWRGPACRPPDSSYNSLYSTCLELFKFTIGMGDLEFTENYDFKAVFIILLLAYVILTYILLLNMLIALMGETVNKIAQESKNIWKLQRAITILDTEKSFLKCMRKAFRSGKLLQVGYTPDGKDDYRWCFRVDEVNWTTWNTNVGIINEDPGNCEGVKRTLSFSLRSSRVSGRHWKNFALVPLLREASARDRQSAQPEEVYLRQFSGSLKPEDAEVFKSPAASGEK
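Fluo-8 calcium influx in TRPV1-expressing cells, kinetic read (ex 480/em 520 nm). Compound added and read 3 min for agonist activity, followed by capsaicin at EC20 final and 2 min further read for enhancement.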
D2 potentiator: Beta-Arrestin HTS for Positive Allosteric Modulators of the Human D2 Dopamine Receptor: Potentiators; DiscoveRx D2 beta-arrestin cells, luminescence, 90 min; 100% = 57 uM dopamine signal; potentiation, % (concentration not given with the values); actives 0.23% (n = 360,000); active = potentiation of 50% or more; inconclusive = 30% to 50%; inactive = 30% or less;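 also: compound concentration not given in the record; tested on top of an EC20 dose of dopamine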
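PathHunter D2 cells, attached overnight at 37 deg C, received compound in DMSO plus dopamine at EC20 (50 nM final) for 90 min at 37 deg C. Beta-arrestin recruitment was read as luminescence after 1 h with detection reagent at ambient temperature.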
TRPML1 blocker: qHTS for Inhibitors of the Human Mucolipin Transient Receptor Potential 1 (TRPML1); TRPML1-inducible cells, Ca2+ dye fluorescence, FDSS; stronger effect = lower value; inhibition of EC80 agonist-evoked calcium signal; activity change, negative = inhibition, % (no concentration beside the values); Mucolipin-1 (Homo sapiens), Q9GZU1; actives 0.02% (n = 390,000); in the data active means activity change below about -50%; inconclusive means about -30% to -50%; inactive means above about -30%;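 also: stimulus is agonist 54-4 at its EC80 concentration; % is scaled to controls: 0 for no effect and ±100 for the full control effect; compound concentration not given in the record; the text of the record puts the active cut at -80%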
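Tet-induced TRPML1-DL cells loaded with Ca8 no-wash calcium dye were read kinetically on FDSS. Compound addition was followed by EC80 agonist 54-4 (4 uM final); inhibition was read over 110 s.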
CtBP-E1A inh: qHTS Assay for Inhibitors of the CtBP/E1A Interaction; AlphaScreen GST-E1A/His-CtBP binding, 1536-well; stronger effect = lower value; control for the full effect not named in the record; activity change, % (concentration not given with the values); actives 0.49% (n = 340,000); in the data active means activity change below about -65%; inconclusive means about -30% to -65%; inactive means above about -30%; also: % is scaled to controls: 0 for no effect and ±100 for the full control effect
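Steps: dispense buffer (Tris pH 8.0, NaCl 300 mM, TCEP 1 mM, BSA, Tween 20); add 5X protein mix (GST-E1A, His-CtBP, 125 nM each); pin 23 nL compound; 2 h at 37 °C, dark; add 5X beads (50 ug/mL); 1 h; read.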
Six1-Eya2 blk: qHTS Assay for Inhibitors of the Six1/Eya2 Interaction | AlphaScreen GST-Six1/His-Eya2 binding, biochemical; stronger effect = lower value; control for the full effect not named in the record | activity change, % (test concentration not listed) | actives 0.56% (n = 360,000) | AID 651725, 2012 | Homeobox protein SIX1 (Homo sapiens) + Protein phosphatase EYA2 (Homo sapiens), …; in the data active = activity change below about -65%; inconclusive = about -30% to -65%; inactive = above about -30%; also: % is scaled to controls: 0 for no effect and ±100 for the full control effect; compound concentration not given in the record
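Six1/Eya2 binding was read as AlphaScreen signal after compounds were pinned into GST-Six1 plus His-tagged Eya2 (5X stock 250/500 nM) in pH 8.0 Tris/NaCl/TCEP buffer, beads added, then incubated 1 h, 37 C, dark.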
TRPML1 ag: qHTS for Agonists of the Human Mucolipin Transient Receptor Potential 1 (TRPML1) | actives 0.12% (n = 410,000) | activation, % (concentration not given with the values) | Mucolipin-1 (Homo sapiens), Q9GZU1 | TRPML1-expressing cells, Ca2+ dye fluorescence, FDSS; host cell line not named in the record; reference of the full effect not given here | AID 624414, 2012; in the data active = activation above about 50%; inconclusive = about 30% to 50%; inactive = below about 30%; also: 0% is about no effect; the text of the record puts the active cut at 80%
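Cells: TRPML1-DL, 1X Tet inducer, ~16 h at 37 degrees C/5% CO2. Dye: ABD Ca8 no-wash + quencher, 45-90 min RT. Read: 10 s baseline, compound add, 110 s agonist phase; 54-4 EC80 (4uM final), 110 s antagonist phase.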
The depositor's hits bear a star; ? = inconclusive; nt = not tested or not shown.

SMILES	TRPV1 PAM	D2 potentiator	TRPML1 blocker	CtBP-E1A inh	Six1-Eya2 blk	TRPML1 ag
COc1cc2c(cc1OC)C(Nc1ccc(S(N)(=O)=O)cc1)=NC(C)(C)C2	-18	-11	11	-4	0	-0.1
COC(=O)c1cc(C(=O)N(Cc2ccccc2)c2ccccn2)cc([N+](=O)[O-])c1	-13	-2	0	nt	-15	0.6
CN1CCN(C(=S)Nc2ccc(Oc3ccccc3)cc2)CC1	-18	-10	2	2	-9	-0.5
COc1ccc(/C=N/Nc2ncnc3c2[nH]c2ccc(C)cc23)c(OC)c1OC	-12	-9	-1	8	-1	0.6
COc1ccccc1N1CCN(C(=O)CSc2nc3ccccc3nc2N2CCC(C)CC2)CC1	13	-11	-11	4	-4	1.1
CC(C)(C)C#CCn1c(/C=[N+](\[O-])C2CCCCC2)nc2ccccc21	-9	-5	-9	0	-3	0.4
O=C(Oc1cccc(NC2=NS(=O)(=O)c3ccccc32)c1)c1cccnc1	0	5	3	-2	-4	-0.4
CCCCC(=O)N1CCCC(C(=O)OCC)C1 (stereo not given)	-2	-2	8	-1	-2	-0.4
Cc1ccc2nc(NC(=O)CSc3ncnc4c3oc3ccccc34)sc2c1	-11	-3	7	-7	2	0.1
COc1ccc(NC(=O)C2CC(=O)n3c(nc4ccccc43)N2)cc1 (stereo not given)	3	-2	49	5	6	0.1
O=C(NCC(O)c1ccccc1)c1cccc(S(=O)(=O)N2CCOCC2)c1 (stereo not given)	-21	3	-12	-1	14	-0.1
Cc1ccc(C)c(S(=O)(=O)N2CCCC2CNC(=O)C(=O)NCc2ccccc2)c1 (stereo not given)	0	-7	-13	-3	1	-0.9
COc1ccc([C@H]2CC(=O)C=C(c3cc(C=O)ccc3OC)C2)cc1OC	4	-2	12	-1	-6	0.2
COc1ccc(OC)c(NC2c3ncccc3C(=O)N2Cc2ccco2)c1 (stereo not given)	23	-9	0	-14	-5	0.0
O=c1cc(N2CCOCC2)cnn1-c1ccccc1	-10	-2	21	0	4	-0.1
O=C(O)/C(=C\c1ccco1)NC(=O)c1ccccc1	-6	-12	-12	16	0	-0.1
O=C1NC(Cc2c[nH]c3ccccc23)C(=O)N1c1ccc(F)cc1 (stereo not given)	5	-1	-11	0	0	0.4
COC(=O)COc1ccc(NC(=O)c2ccco2)cc1	-2	-3	21	2	2	-0.3
CC(C)=C1SC(N2CCN(c3ccc(Cl)cc3)CC2)=NC1=O	-3	-2	3	-16	-8	3.3
CSCCC(C(=O)Nc1c(C)cccc1C)N1CCN(C/C=C/c2ccccc2)CC1 (stereo not given)	nt	-15	nt	-14	-15	-0.6
CCCCn1nnnc1NCc1cc(OC)c(OC)c(OC)c1	3	0	-1	12	3	3.3
CCC(C)n1c(C)nc2c(c1=O)c1nc3ccccc3nc1n2CCC1=CCCCC1 (stereo not given)	-25	-12	-18	-6	1	0.5
Cc1ccc2c(c1)c(C1=c3ccccc3=NC1=O)c(O)n2C	-25	-48	-6	nt	14	1.8
COCCCNC(=O)c1ccc(CS(=O)(=O)Cc2cccc(C)c2)o1	11	-8	-14	4	5	0.6
CC(=O)Nc1cc(NC(=O)CCCC(=O)O)ccc1Cl	?	-2	-6	6	5	-0.1
CSCCC(NC(=O)COc1ccccc1)C(=O)OCc1ccc([N+](=O)[O-])cc1 (stereo not given)	-17	5	-6	-10	-8	1.0
CSCC[C@H](NC(=O)N1CCn2c1nc1ccccc12)C(=O)N[C@H](Cc1ccccc1)C(=O)O	7	-21	nt	8	3	nt
COC(=O)COn1c(SCC(=O)OC)nc2ccccc2c1=O	-13	-4	?	-3	4	-1.0
CCOCCCNC(=O)CN1C(=O)COc2ccc(S(=O)(=O)N3CC(C)CC(C)C3)cc21 (stereo not given)	?	-1	6	7	0	-0.9
Cc1nc2ccccc2c2oc(C(=O)NCc3ccc4c(c3)OCO4)cc12	-28	-8	-4	?	-17	1.5
COc1ccc(-c2nnnn2C(C)C)cc1	-8	-2	3	6	-8	-0.7
CCCCCNC(=O)c1ccc2c(=O)n(CCCOCC)c(=S)[nH]c2c1	-7	-1	-3	5	4	-0.8
COc1cc(C(=O)COC(=O)c2c(C)noc2C)cc(OC)c1OC	nt	6	12	nt	2	-0.5
COC(=O)c1ccc(S(=O)(=O)N2Cc3ccccc3C2)cc1	4	2	-6	nt	4	0.3
O=C(Cn1cc(-c2nnnn2-c2ccc(Cl)cc2)c(=O)c2ccccc21)c1ccccc1	3	10	19	-1	1	3.5
CCC(Oc1ccccc1)C(=O)Nc1ccc(S(=O)(=O)NCC2CCCO2)cc1 (stereo not given)	-1	-1	15	8	2	2.9
Cc1ccc(C(=O)Oc2coc(CSc3nnc(NC(=O)c4cccs4)s3)cc2=O)cc1	14	-2	15	-11	-6	2.6
CC(=O)Nc1ccc(NC(=O)c2ccc(COc3ccccc3Br)o2)cc1	8	-10	1	0	3	-0.3
O=C(NCCN1CCOCC1)C12CC3CC(C1)CC(c1ccccc1)(C3)C2	-4	-10	-3	4	6	1.1
CCCCN1CCC(COC(=O)c2cc(Cl)c(N)c3c2OCCO3)CC1	6	-24	4	0	-2	0.2
CCOc1ccc(C(=O)Nc2ccc(NC(=O)c3cccs3)cc2)cc1[N+](=O)[O-]	-19	-4	27	-5	17	1.5
Nc1c(N2CCCC2)c2ccccc2oc1=O	15	-1	20	-8	-19	2.6
COc1ccc(C(c2nnnn2C(C)(C)C)N2CCN(C(=O)c3ccco3)CC2)cc1 (stereo not given)	13	2	-4	23	-2	0.7
CN(C)S(=O)(=O)c1cc(NC(=O)Cn2ccsc2=N)ccc1Cl	-6	30	29	nt	2	3.3
Cc1c(C(=O)N2CCNCC2)oc2ccccc12	14	-10	11	8	16	0.1

Four compounds from above with just Six1-Eya2 blk, TRPML1 ag and CtBP-E1A inh.
| molecule | Six1-Eya2 blk | TRPML1 ag | CtBP-E1A inh |
| --- | --- | --- | --- |
| CCCCCNC(=O)c1ccc2c(=O)n(CCCOCC)c(=S)[nH]c2c1 | 4 | -0.8 | 5 |
| COc1cc(C(=O)COC(=O)c2c(C)noc2C)cc(OC)c1OC | 2 | -0.5 | nt |
| COC(=O)c1ccc(S(=O)(=O)N2Cc3ccccc3C2)cc1 | 4 | 0.3 | nt |
| O=C(Cn1cc(-c2nnnn2-c2ccc(Cl)cc2)c(=O)c2ccccc21)c1ccccc1 | 1 | 3.5 | -1 |

Later entries
SMILES	TRPV1 PAM	D2 potentiator	TRPML1 blocker	CtBP-E1A inh	Six1-Eya2 blk	TRPML1 ag
CCCN(CCC)CCNC(=O)C(NS(=O)(=O)c1ccc2c(c1)CCC(=O)N2)c1ccccc1 (stereo not given)	9	-2	-1	-2	0	1.3
CCc1nc2c(OCCOc3ccccc3)cccn2c1N(C=O)Cc1ccc(OC)cc1	nt	2	nt	1	-8	-0.9
O=[N+]([O-])c1ccc2c(c1)C(N1CCN(CCO)CC1)Cc1ccc(F)cc1S2 (stereo not given)	nt	-12	nt	-3	-12	0.9
O=C(c1ccccc1)c1c[nH]c(C(=O)NCCCN2CCOCC2)c1	-6	-38	-2	-1	-9	0.0
CC1(C(=O)N2CC3(CC(c4cccc(NC(=O)CC(c5ccccc5)c5ccccc5)c4)=NO3)C[C@@H]2C(N)=O)CC1 (stereo not given in full)	28	5	-3	0	2	-0.5
Cc1ccc2c(c1)C1CN(C)CCC1N2CC(=O)N(C)c1ccccc1 (stereo not given)	7	-7	-7	9	-1	-0.3
Cc1cccc2c(N=O)c(O)n(CCc3ccccc3)c12	-3	6	5	nt	-7	1.6
CSc1ccc(/C=N/NC(=O)c2cccs2)cc1	-9	-9	13	6	-1	1.3
Cc1cccc(C(=O)NCCNc2nc3cc(C)c(C)cc3cc2C)c1	-2	-5	20	1	1	4.5
CN(C)S(=O)(=O)N(CC(=O)Nc1cccc(F)c1)c1ccccc1	17	-5	-14	0	-1	-0.6
Cc1cc(Cl)c(C)c(S(=O)(=O)N2CCN(CC(=O)N3CCOCC3)CC2)c1Cl	-19	-1	-14	-15	6	0.8
COc1cccc(C(=O)NCCCc2ccccc2)c1OC	nt	1	-14	2	10	0.1
CC(=O)C1CCN(Cc2ccccc2)CC1	-7	-1	4	3	4	0.0
CCCCn1c(-c2ccc(Br)cc2F)nc2c1c(=O)[nH]c(=O)n2CC(C)C	-6	5	67	-1	12	3.3
Cc1ccc(NC(=O)CCn2c(=S)oc3ccccc32)cc1F	-3	-9	-8	-6	-2	1.9

Among those listed so far, these contain a nitro group on carbon:
SMILES	TRPV1 PAM	D2 potentiator	TRPML1 blocker	CtBP-E1A inh	Six1-Eya2 blk	TRPML1 ag
COC(=O)c1cc(C(=O)N(Cc2ccccc2)c2ccccn2)cc([N+](=O)[O-])c1	-13	-2	0	nt	-15	0.6
CSCCC(NC(=O)COc1ccccc1)C(=O)OCc1ccc([N+](=O)[O-])cc1 (stereo not given)	-17	5	-6	-10	-8	1.0
CCOc1ccc(C(=O)Nc2ccc(NC(=O)c3cccs3)cc2)cc1[N+](=O)[O-]	-19	-4	27	-5	17	1.5
O=[N+]([O-])c1ccc2c(c1)C(N1CCN(CCO)CC1)Cc1ccc(F)cc1S2 (stereo not given)	nt	-12	nt	-3	-12	0.9

Next part
SMILES	TRPV1 PAM	D2 potentiator	TRPML1 blocker	CtBP-E1A inh	Six1-Eya2 blk	TRPML1 ag
COc1ccc(S(=O)(=O)n2nc(OC(=O)c3ccco3)cc2N)cc1	-13	-6	-4	5	-1	0.7
O=C(N[C@@H](CO)C(=O)NCc1ccccc1)c1ccc(C(F)(F)F)cc1	15	0	-9	9	5	0.4
Cc1cc(C)n(Cc2ccccc2Cl)n1	18	-15	6	3	6	0.7
O=S(=O)(c1cccc(Cn2nnc(-c3ccccc3)n2)c1)N1CCOCC1	nt	2	13	-4	-3	1.9
CCOC(=O)N1CCN(C(=O)c2ccccc2NC(=O)COc2ccccc2)CC1	8	0	-4	5	-6	-0.3
O=C(NCc1ccc(N2CCCC2=O)cc1)c1cc(COc2c(F)cccc2F)on1	16	0	28	0	3	2.8
O=C(COC(=O)c1ccccc1O)NC(=O)NCc1ccccc1	-1	-15	1	0	28	2.0
CCN(CC)S(=O)(=O)c1ccc(OC)c(NC(=O)CCS(=O)(=O)Cc2ccccc2)c1	11	-10	1	2	-2	-0.1
CCCNC(=O)c1ccc(N2CCC3(CC2)CC(c2ccccc2)=NO3)c(NC(=O)c2ccccc2)c1	?	-10	-13	-28	1	1.6
CC(C)(C)c1ccc(-c2nnc(SCC(=O)NC3CCS(=O)(=O)C3)n2N)cc1 (stereo not given)	-18	-11	25	-10	-7	0.5
CCOc1ccc(NC(=O)N(C2CCCCC2)C2CCN(C(C)=O)CC2)cc1	nt	-3	-7	-2	-5	-0.6
O=C1CC(N2CCC(O)(c3ccc(Cl)cc3)CC2)C(=O)N1 (stereo not given)	-3	-3	9	13	2	-0.3
